D2 PAM: human D2 receptor positive allosteric modulation; DiscoveRx D2 beta-arrestin cells, luminescence, 90 min; 100% = 57 uM dopamine signal; 360,000 tested, 0.23% active; potentiation, % (no concentration beside the values); AID 624464; active = potentiation of 50% or more; inconclusive = 30% to 50%; inactive = 30% or less;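 note: compound concentration not given in the record; tested on top of an EC20 dose of dopamine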
Target sequence (P14416 whole entry, looked up): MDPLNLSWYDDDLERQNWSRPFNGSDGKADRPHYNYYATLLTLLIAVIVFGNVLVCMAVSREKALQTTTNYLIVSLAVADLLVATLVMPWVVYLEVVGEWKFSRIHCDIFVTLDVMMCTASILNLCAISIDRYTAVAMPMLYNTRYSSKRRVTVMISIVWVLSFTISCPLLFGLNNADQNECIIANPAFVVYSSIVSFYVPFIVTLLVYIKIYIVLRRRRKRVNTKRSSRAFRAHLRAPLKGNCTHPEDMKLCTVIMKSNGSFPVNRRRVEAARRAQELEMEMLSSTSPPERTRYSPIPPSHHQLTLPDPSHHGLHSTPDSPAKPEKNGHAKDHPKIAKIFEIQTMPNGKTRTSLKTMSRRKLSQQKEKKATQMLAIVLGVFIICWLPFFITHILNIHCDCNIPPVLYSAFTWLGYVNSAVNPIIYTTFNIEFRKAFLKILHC
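PathHunter beta-arrestin assay in DiscoveRx D2 cells. Compounds were added with an EC20 of dopamine (50 nM final) for 90 min at 37 deg C. Luminescence was read 1 h after detection reagent, with 57 uM dopamine as the EC100 control.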
TRPV1 potentiator: enhances activation of the human vanilloid receptor TRPV1 | TRPV1-expressing cells, Fluo-8 calcium influx, capsaicin EC20 potentiation; host cell line not named in the record; control for the full effect not named in the record | potentiation, % at 8.33 µM | 320,000 tested, 0.02% active | AID 540277 | Q8NER1; active means potentiation above 80%; inconclusive means 30% to 80%; inactive means below 30%; note: 0% is about no effect
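TRPV1-expressing cells were cultured overnight at 35.5C and loaded with Fluo-8 calcium dye for 40 to 90 min at room temperature. After a 10 s baseline, compound was added and calcium influx was read kinetically for 3 min (ex 480/em 520 nm).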
D2 ag: agonists of human D2 dopamine receptor (beta-arrestin) | P14416 | DiscoveRx PathHunter D2 beta-arrestin, luminescence, 90 min; 100% = 57 uM dopamine signal | activation, % (concentration not given with the values) | 360,000 tested, 0.084% active; in the data active = activation above about 40%; inconclusive = about 15% to 40%; inactive = below about 15%; note: compound concentration not given in the record; the text of the record calls up to 30% inactive
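DiscoveRx PathHunter D2 beta-arrestin cells (2,100/well) attached overnight, then compound-stimulated 90 min at 37 C in HBSS/10 mM HEPES/0.1% Tween-20 buffer; beta-galactosidase complementation read by luminescence after 1 h at ambient temperature. Dopamine 57 uM final (EC100) as control.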
Six1-Eya2 blk: inhibitors of human Six1/Eya2 interaction. Q15475+O00167. AlphaScreen GST-Six1/His-Eya2 binding, biochemical; hits give low values; control for the full effect not named in the record. activity change, % (concentration not given with the values). 360,000 tested, 0.56% active; in the data active = activity change below about -65%; inconclusive = about -30% to -65%; inactive = above about -30%; note: % is set by controls: 0 for no effect and ±100 for the full control effect
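AlphaScreen with GST-Six1 and His-Eya2 (5X mix: 250 nM and 500 nM), glutathione donor and nickel acceptor beads; buffer 50 mM Tris pH 8.0, 300 mM NaCl, 1 mM TCEP; 1 h at 37 C in the dark.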
PINK1 modulator: modulators of PINK1 expression | PINK1 immunofluorescence, high-content cytometry, 24 h | Potency, µM (doses to about 76.6 µM), for inactives: at the top dose activation (PINK1 increase), most hits filed as activators | 410,000 tested, 0.2% active; active = well fitted activation curve with a large enough effect; inconclusive = small, poorly fitted or top-dose-only effect; inactive = flat fitted curve, though single readings scatter; cell line not stated here;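 note: potency is the fitted concentration of half-maximal effect; % of control where 0% means no effect; nearly all actives have a fitted effect of over 65% in size; a mitochondrial uncoupler was the plate control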
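Stable cell line, 250 cells/well, 12 h attachment; compounds pinned at 5 concentrations, 24 h; CCCP control. Fixed with nuclear dye, primary antibodies 12 h at 10 degrees C, secondary plus cell stain; laser-scanning cytometer read.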
Sfp inh: inhibitors of Bacillus subtilis Sfp phosphopantetheinyl transferase | Q9F4F7 | Biochemical Sfp PPTase activity, qHTS | Potency, µM, for the others: max response, negative = inhibition, hits mostly inhibitors | 310,000 tested, 3.5% active | AID 1490; active = well fitted inhibition curve with a large enough effect; inconclusive = small, poorly fitted or top-dose-only effect, or another doubt; inactive = no such curve, though single readings can be large or run the other way;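 note: the enzyme is Sfp with the accession as filed and its product quenches rhodamine fluorescence; potency is the fitted concentration of half-maximal effect; 0% = enzyme reaction without inhibitor and -100% = no enzyme wells; top concentration of the series not given in the record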
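Sfp 15 nM + cpd, 15 min RT; start w/ rhodamine-CoA 5 uM, BHQ-2-YbbR 12.5 uM (final); 50 mM Hepes pH 7.6, 10 mM MgCl2, 0.01% NP-40, 0.01% BSA; read 525/598 nm at 0 and 30 min.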
CtBP-E1A blk: blocks the CtBP interaction with E1A; AlphaScreen GST-E1A/His-CtBP binding, 1536-well; hits give low values; control for the full effect not named in the record; activity change, % (test concentration not listed); 340,000 tested, 0.49% active; in the data active means activity change below about -65%; inconclusive means about -30% to -65%; inactive means above about -30%; note: % is set by controls: 0 for no effect and ±100 for the full control effect; compound concentration not given in the record
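Steps: dispense buffer (Tris pH 8.0, NaCl 300 mM, TCEP 1 mM, BSA, Tween 20); add 5X protein mix (GST-E1A, His-CtBP, 125 nM each); pin 23 nL compound; 2 h at 37 °C, dark; add 5X beads (50 ug/mL); 1 h; read.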
* marks the source's active call; other numbers are inactive results; ? = inconclusive; / = not tested or not shown; & = joins results of further samples; [ ] = dose if it differs, or a comment. Rows were taken by chance, and some 3.7% of all compounds hit somewhere here.

SMILES	Sfp inh	CtBP-E1A blk	D2 ag	PINK1 modulator	Six1-Eya2 blk	TRPV1 potentiator	D2 PAM
Cc1ccccc1C(=O)NC(NC(=O)c1ccccc1C)c1cccc([N+](=O)[O-])c1	-7%	0	2.9	0.7%	0	4	-2
CNc1oc(-c2ccc(Cl)cc2)nc1C#N	10%	-1	-3.9	4.1%	-1	/	-20
CC1(C(=O)Nc2ccccc2Br)CCN1C(=O)Cc1ccccc1Cl (stereo not drawn)	/	2	4.3	0.1%	1	/	1
CCOc1cc(/C=N/NC(N)=S)cc(Br)c1OCc1ccccc1C	9%	-1	0.5	9.8%	-5	9	-3
COc1cc2c(cc1OC)CN(C(=O)/C=C/c1cccc([N+](=O)[O-])c1)CC2	-2%	2	-0.8	3.5%	-2	0	-3
CN(C)C(CNc1ncnc2sccc12)c1cccs1 (stereo not drawn)	11%	-7	-5.0	3.1%	1	-1	-4
COc1cc(NC(=O)COC(=O)/C=C/c2ccc(Cl)cc2Cl)cc(OC)c1	?	-21	1.1	1.7%	-6	15	-1
COc1ccc(CNC(=O)c2c[nH]c3c(OC)cc(OC)cc3c2=O)cc1	-9%	/	0.0	11%	-10	20	3
O=C1C=C(c2ccc3ccccc3c2)C[C@@H](c2ccc(Cl)cc2)C1	/	1	-0.1	2.6%	-1	8	-6
O=C1CC(c2ccccc2Cl)CC(O)=C1C=Nc1ccccc1 (stereo not drawn)	-8%	9	-2.8	4.6%	0	-8	-5
FC(F)(F)c1cccc(N/N=C/c2ccccc2)c1	13%	-10	5.5	?	-6	5	3
O=C(NCc1cccs1)C1CCN(S(=O)(=O)c2ccc(Cl)cc2)CC1	4%	0	0.9	0.1%	2	-13	-28
CC(C)CNC(=O)c1ccccc1-c1ccccc1C(=O)O	8%	-1	1.2	-2.0%	13	5	6
O=C(O)c1ccc(NCc2nc3ccccc3n2Cc2ccccc2)cc1	18%	-4	-1.5	-0.2%	16	2	-3
O=C(C[n+]1cc(-c2ccccc2)n2c1CCCCC2)c1ccc(Cl)cc1	4%	3	-0.6	-0.3%	0	-5	-15
CN(C)S(=O)(=O)c1ccc(Cl)c(NC(=O)COC(=O)CNS(=O)(=O)c2c(F)cccc2F)c1	/	/	0.4	0.2%	-10	/	-11
COc1ccc(Nc2ccccc2NC(=O)c2ccccc2Br)cc1	7%	-20	3.5	1.2%	-28	-7	5
N#Cc1cnn2c1nc(N1CCOCC1)c1ccccc12	24%	-8	0.9	1.4%	5	-7	-2
Nc1nonc1OCCOCCOCCOc1nonc1N	20%	-1	-3.4	-2.8%	9	-6	-1
O=C(Oc1ccccc1/C=C\C(=O)c1cc2ccccc2o1)c1cccc(F)c1	?	-8	-4.8	-3.2%	-3	1	-6
CC(NC(=O)c1cccc(F)c1)C1CC2CCC1C2 (stereo not drawn)	/	-8	2.1	-0.1%	-10	/	0
O=C(NCc1ccco1)C1CC2CCC1C2 (stereo not drawn)	0%	?	-1.5	/	-70*	?	27
Nc1c(C2=NCCO2)nnn1Cc1ccccc1	3%	-1	0.3	-3.3%	3	7	-9
Cc1cccc(N2CC(C(=O)Nc3nnc(SCC(=O)NCC4CCCO4)s3)CC2=O)c1 (stereo not drawn)	?	-3	-9.5	1.3%	-6	0	-14
Cc1cc2nc(-c3cccc(Br)c3)c(Cc3ccccc3)n2c(C)c1Br	/	1	-4.9	2.8%	-7	/	-9
O=C1CCCCC(=O)N(c2ccccc2)c2ccccc21	12%	-2	-0.8	4.8%[38.3 µM]	4	9	6
COc1ccc(C2=NNC(=Nc3cc(S(=O)(=O)N(C)C)ccc3C)SC2)c(OC)c1	?	-19	-14	2.8µM*	-26	14	-33
Cc1ccc(NC(=O)c2ccccc2N(C)S(=O)(=O)c2ccccc2)c(C)c1	5%	-3	-0.7	?	20	-11	1
CN(c1ccc(C(=O)N2CCCCCC2)cc1)S(=O)(=O)c1ccccc1	/	/	8.9	3.9%	1	12	-1
Cc1ccc(C)c(S(=O)(=O)N2CCCCC2CCNC(=O)C(=O)NCc2ccncc2)c1 (stereo not drawn)	/	5	3.1	-2.9%	0	-25	23

Part of the list above, reduced to D2 PAM.
Structure	D2 PAM
Cc1ccccc1C(=O)NC(NC(=O)c1ccccc1C)c1cccc([N+](=O)[O-])c1	-2
CNc1oc(-c2ccc(Cl)cc2)nc1C#N	-20

The results go on.
SMILES	Sfp inh	CtBP-E1A blk	D2 ag	PINK1 modulator	Six1-Eya2 blk	TRPV1 potentiator	D2 PAM
CC1(C(=O)O)COC(c2ccc(Cl)cc2)OC1 (stereo not drawn)	8%	3	-2.3	4.9%	-2	2	-2
O=C(NCCS(=O)(=O)NC1CCCCC1)c1ccc2c(c1)OCO2	/	1	-2.1	1.6%	3	-7	-5
N#Cc1nc(-c2ccco2)oc1N1CCN(Cc2ccccc2)CC1	-4%	-11	0.8	-2.4%	-14	-3	-31
NC(=O)Cc1nc(-c2ccc(F)cc2)cs1	6%	/	-3.8	2.7%	10	4	-17
CCOC(=O)C1(CCCc2ccccc2)CCN(C(=O)CCn2cncn2)CC1	21%	0	4.2	-0.2%	9	-12	-1
OC(CNCc1ccccc1)COc1ccccc1 (stereo not drawn)	/	4	0.0	0.8%	7	-32	-23
COc1ccc(CCC(=O)N(c2nnc(-c3cccnc3)s2)C(C)C)cc1	-5%	1	-0.6	14%	9	-6	-4
COc1ccc(C(=O)N[C@H](C(=O)Nc2ccc(S(=O)(=O)N3CCOCC3)cc2)C(C)C)cc1	0%	9	-7.1	0.8%	0	2	-15
COCc1ccc([C@@H]2C[C@H]3CN(Cc4cccnc4)C(=O)[C@]34CCCN24)o1	10%	/	1.2	-0.3%	2	10	7
COCCNC(=O)c1cc2c(c(-c3cccc(-c4cc5ccccc5o4)c3)n1)[C@H](CCO)N(S(=O)C(C)(C)C)C2 (stereo partly drawn)	/	-13	-2.7	1.8%	-19	/	3
Cc1ccc(NC(=S)Nc2c(C)n(C)n(-c3ccccc3)c2=O)cc1	?	39	-0.7	-1.1%	29	-4	-5
Cc1ccccc1C(=O)N1CCC(C(=O)Oc2ccc(C#N)cc2)CC1	-3%	-23	-1.4	-1.8%	-12	7	-11
CCc1ccccc1Oc1coc2cc(O)ccc2c1=O	7%	/	-2.4	-0.4%	1	8	-4
CN(c1ccc(F)cc1)S(=O)(=O)c1ccc2[nH]cc(C(=O)O)c(=O)c2c1	19%	0	-2.5	3.2%	-5	1	24
Cc1[nH]c(=O)[nH]c(=O)c1CSc1nnc([C@H](CC(C)C)NC(=O)OC(C)(C)C)o1	-4%	-11	0.2	5.9%	4	5	-8
N#Cc1nc(COc2ccccc2F)oc1NCCCn1ccnc1	16%	-75*	-0.1	-0.6%	?	2	-13
CCc1ccc(C(=O)CSc2nnc(C3CC3)n2C2CC2)cc1	/	-7	-0.2	-0.1%	0	6	-3
CCC(=O)N1CCc2cc(S(=O)(=O)N3CCc4ccccc4C3)ccc21	10%	1	-1.5	0.5%	2	1	-8
COc1ccc(NC(=O)C2(C)CCN2C(=O)C(C)C)cc1F (stereo not drawn)	/	-23	-9.1	0.2%	5	/	-3
Cc1cccc(C(=O)n2c(=S)nc3cc(C)ccn32)c1	8.9µM*	8	-1.6	2.9%	-2	/	-12
CCCC(=O)n1nc(-c2ccc(C)cc2)nc1NCc1ccco1	-6%	9	-8.7	13%	0	0	-23
COC(=O)c1cnc(SCc2ccc(C)cc2)n1C	17%	/	-1.3	2.3%	5	3	0
CCc1nc(SCC(=O)c2cc(C)ccc2C)n[nH]1	56µM*	0	-4.0	3.5%[38.3 µM]	5	1	-11
C=CCNCCOc1ccc(C)cc1[N+](=O)[O-]	-12%	-15	-3.6	-0.9%	4	1	-8
COc1ccccc1N1CCN(CC(O)COc2cccc3ccccc23)CC1 (stereo not drawn)	-9%&11%&9%	?	-6.3&-6.5	6.3%&2.7%	-16&-7	6&15&7	-38&-37
CCn1cc([N+](=O)[O-])c(C(=O)N2N=C(c3ccc(Cl)c(Cl)c3)CC2c2ccccc2O)n1 (stereo not drawn)	13%	-11	5.3	-2.1%	-12	-4	1
CN=C1NC(C)(C)C2CCC(C)(CC2)S1	/	-4	-2.8	-1.5%	5	/	-5
CCN(CC(O)CON=C1c2ccccc2-c2ccccc21)S(=O)(=O)c1ccc(Cl)cc1 (stereo not drawn)	0%	1	1.0	?	4	21	-30
COc1ccc(CNC(=O)C2CCN(S(=O)(=O)N3CCCC3)CC2)c(OC)c1	16%	-2	-1.7	2.2%	4	-2	-20
Cc1cc2sc3ccccc3c(=O)c2c(C)c1O	-30%	-4	-8.9	-0.9%	-22	14	-36

SMILES	Sfp inh	CtBP-E1A blk	D2 ag	PINK1 modulator	Six1-Eya2 blk	TRPV1 potentiator	D2 PAM
O=C(CSc1nnc2scc(-c3ccccc3)n12)Nc1nsc(-c2ccccc2)n1	32µM*	2	1.2	0.2%[38.3 µM]	-10	15	-4
COc1cc(NC(=O)CSc2nc(C3CC3)nc3ccccc23)cc(OC)c1	-14%	-3	-5.0	-0.2%	0	4	-8
COc1ccc(CC(=O)N/N=C(\C)CC(=O)Nc2ccc3c(c2)OCCO3)cc1OC	11%	-14	-1.2	0.8%	8	23	-6
CCN1C(=O)CC(n2c(C)nc3ccccc32)C1=O (stereo not drawn)	14%	-2	1.4	-1.2%	2	25	-15
CCc1cc2c(=O)n(CC(C)C)cnc2s1	12%	0	-3.0	0.7%	8	13	-7
COc1ccc(C(C[N+](=O)[O-])c2c(-c3ccccc3)cc3ccccn23)cc1 (stereo not drawn)	11%	-10	-2.9	6.3%	-16	6	-4
C[C@@H]1CN([C@@H](C)CO)C(=O)c2cc(N(C)C)ccc2O[C@@H]1CN(C)S(C)(=O)=O	/	4	0.5	1.4%	0	/	-3
CN(Cc1ccco1)C(=O)Cn1cc(S(=O)(=O)N2CCCC2)c(S(=O)(=O)N2CCCC2)c1	-15%	-2	-1.2	-1.2%	1	-5	5
O=C1CCC([N+](=O)[O-])C(c2cccc([N+](=O)[O-])c2)N1 (stereo not drawn)	11%	-14	1.3	0.2%	6	0	20

High-throughput results from PubChem BioAssay.
